Compound activity: PubChem, National Center for Advancing Translational Sciences (NCATS)
D2 potentiator: human D2 receptor positive allosteric modulation; AID 624464; potentiation, % (test concentration not listed); 0.23% of 360,000 active; DiscoveRx D2 beta-arrestin cells, luminescence, 90 min; 100% = 57 uM dopamine signal; P14416; active = potentiation of 50% or more; inconclusive = 30% to 50%; inactive = 30% or less;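 also: compound concentration not given in the record; tested on top of an EC20 dose of dopamine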
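D2 cells co-treated with compound plus 50 nM dopamine (EC20) for 90 min at 37 deg C to detect potentiation. Beta-arrestin recruitment was read as enzyme-fragment luminescence after 1 h at ambient temperature. Full response was set by 57 uM dopamine.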
Sfp inh: Sfp phosphopantetheinyl transferase inhibition; Q9F4F7; Biochemical Sfp PPTase activity, qHTS; Potency, µM, for the others: max response, negative = inhibition, hits mostly inhibitors; 3.5% of 310,000 active; active = well fitted inhibition curve with a large enough effect; inconclusive = small, poorly fitted or top-dose-only effect, or another doubt; inactive = no such curve, though single readings can be large or run the other way;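 also: the enzyme is Sfp with the accession as filed and its product quenches rhodamine fluorescence; potency is read from the fitted curve at half-maximal effect; 0% = enzyme reaction without inhibitor and -100% = no enzyme wells; top concentration of the series not given in the record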
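Compounds were incubated with enzyme (final 15 nM) for 15 min at room temperature before substrate addition started the reaction. Fluorescence at 525 nm excitation, 598 nm emission was recorded immediately and after 30 minutes.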
Six1-Eya2 inh: inhibitors of human Six1/Eya2 interaction; Q15475+O00167; AlphaScreen GST-Six1/His-Eya2 binding, biochemical; active compounds read low; control for the full effect not named in the record; activity change, % (no concentration beside the values); 0.56% of 360,000 active; in the data active = activity change below about -65%; inconclusive = about -30% to -65%; inactive = above about -30%; also: % is scaled to controls: 0 for no effect and ±100 for the full control effect
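AlphaScreen luminescence read after one hour at 37 °C in darkness. Pin-transferred compounds met GST-Six1 and His-Eya2 protein (5X stock 250 nM/500 nM) plus glutathione donor and Ni-chelate acceptor beads (5X, 50 ug/mL).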
TRPV1 potentiator: enhances activation of the human vanilloid receptor TRPV1; potentiation, % at 8.33 µM; AID 540277; Q8NER1; 0.02% of 320,000 active; TRPV1-expressing cells, Fluo-8 calcium influx, capsaicin EC20 potentiation; host cell line not named in the record; control for the full effect not named in the record; active means potentiation above 80%; inconclusive means 30% to 80%; inactive means below 30%; also: 0% is about no effect
Target sequence (Q8NER1 whole entry, looked up): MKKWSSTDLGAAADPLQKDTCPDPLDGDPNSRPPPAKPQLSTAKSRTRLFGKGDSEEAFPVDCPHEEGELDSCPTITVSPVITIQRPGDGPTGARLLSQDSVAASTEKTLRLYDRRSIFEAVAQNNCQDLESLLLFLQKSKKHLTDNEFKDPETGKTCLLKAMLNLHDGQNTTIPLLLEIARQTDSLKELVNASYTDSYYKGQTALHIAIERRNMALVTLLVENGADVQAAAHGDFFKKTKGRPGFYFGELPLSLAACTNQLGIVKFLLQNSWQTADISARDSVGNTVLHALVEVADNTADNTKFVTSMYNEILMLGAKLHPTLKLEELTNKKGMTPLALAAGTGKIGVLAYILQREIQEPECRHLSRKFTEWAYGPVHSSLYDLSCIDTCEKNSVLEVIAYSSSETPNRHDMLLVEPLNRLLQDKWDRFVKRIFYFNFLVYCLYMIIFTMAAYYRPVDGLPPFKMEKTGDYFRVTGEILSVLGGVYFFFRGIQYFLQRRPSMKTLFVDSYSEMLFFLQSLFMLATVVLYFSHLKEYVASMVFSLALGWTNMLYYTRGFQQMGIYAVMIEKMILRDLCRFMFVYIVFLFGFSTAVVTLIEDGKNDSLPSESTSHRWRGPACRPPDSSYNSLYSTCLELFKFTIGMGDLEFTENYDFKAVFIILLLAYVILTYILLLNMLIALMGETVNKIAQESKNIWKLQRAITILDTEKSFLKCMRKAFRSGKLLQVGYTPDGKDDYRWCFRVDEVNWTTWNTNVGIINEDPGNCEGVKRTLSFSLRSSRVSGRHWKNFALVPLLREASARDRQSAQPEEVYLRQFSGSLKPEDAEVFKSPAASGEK
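Fluo-8 calcium influx in TRPV1-expressing cells, kinetic read (ex 480/em 520 nm). Compound added and read 3 min for agonist activity, followed by capsaicin at EC20 final and 2 min further read for enhancement.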
D2 agonist: activates the human D2 dopamine receptor. AID 624465. 0.084% of 360,000 active. DiscoveRx PathHunter D2 beta-arrestin, luminescence, 90 min; 100% = 57 uM dopamine signal. P14416. activation, % (test concentration not listed); in the data active = activation above about 40%; inconclusive = about 15% to 40%; inactive = below about 15%; also: compound concentration not given in the record; the text of the record calls up to 30% inactive
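Agonist mode: compounds alone added to overnight-plated D2 PathHunter cells for 90 min at 37 C, with 57 uM final dopamine (EC100) defining full response. Beta-arrestin recruitment detected by chemiluminescent reagent, read after 1 h at ambient temperature.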
PINK1 expr mod: changes PINK1 expression; AID 624263; 0.2% of 410,000 active; Potency, µM (doses to about 76.6 µM), for the others: top-dose activation (PINK1 increase), usual class: activators; PINK1 immunofluorescence, high-content cytometry, 24 h; active = well fitted activation curve with a large enough effect; inconclusive = small, poorly fitted or top-dose-only effect; inactive = flat fitted curve, though single readings scatter; cell line not stated here;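 also: potency is read from the fitted curve at half-maximal effect; % of control where 0% means no effect; nearly all actives have a fitted effect of over 65% in size; a mitochondrial uncoupler was the plate control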
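Compound titrations (5 concentrations, 24 h) on a stable cell line; DMSO and CCCP controls. Endpoint: fixed-cell PINK1 immunofluorescence with mitochondrial, cell and nuclear markers, scanned by microplate cytometer.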
CtBP-E1A blk: CtBP/E1A binding inhibition; 0.49% of 340,000 active; activity change, % (concentration not given with the values); AlphaScreen GST-E1A/His-CtBP binding, 1536-well; active compounds read low; control for the full effect not named in the record; in the data active means activity change below about -65%; inconclusive means about -30% to -65%; inactive means above about -30%; also: % is scaled to controls: 0 for no effect and ±100 for the full control effect
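In 5 uL wells, 23 nL compound meets equimolar GST-E1A and His-CtBP (5X stock 125 nM each) for 2 h, 37 °C. Beads (5X, 50 ug/mL) then 1 h, 37 °C, dark.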
* = called active by the depositor; ? = inconclusive; · = no result given; & = joins results of further samples; [ ] = remark or other dose.

#1 O=[N+]([O-])c1cc(/C=N/Nc2nc(N3CCCCC3)nc(N3CCCCC3)n2)ccc1O
#2 COc1ccc(C(=O)NCCONC(=O)c2ccc(OC)cc2)cc1
#3 COc1ccc(C(C)(O)c2nc(-c3ccccc3C)cs2)cc1 (stereo unspecified)
#4 COc1ccc(CCNC(=O)c2ccc(S(=O)(=O)N(C)c3ccccc3)cc2)cc1OC
#5 COC(=O)[C@]1(C)N[C@H](CN(C)C(=O)COc2ccccc2)[C@@H]2C(=O)N(C)C(=O)[C@@H]21
#6 CCc1ccc(N2C(=O)C(Cl)=C(N3CCCCCC3)C2=O)cc1
Compound	1	2	3	4	5	6
D2 potentiator	-3	-34	-9	2	0	-1
Sfp inh	5%	14%	·	10%	·	-2%
Six1-Eya2 inh	8	-9	13	-5	13	12
TRPV1 potentiator	-33	1	·	6	·	-6
D2 agonist	-5.5	-4.3	4.0	-0.1	-0.8	2.2
PINK1 expr mod	0.7%	-0.3%	10%	-0.7%	1.2%	-0.6%
CtBP-E1A blk	1	-5	-2	1	0	32

#7 COc1cc2cc(Oc3ccc4ccc(=O)oc4c3)c(=O)oc2cc1OC(=O)/C=C/c1ccccc1
#8 Cc1ccc(-c2csc3ncn(CC(N)=O)c(=O)c23)cc1C
#9 CC(=O)c1ccc(NC(=O)CSc2nnc(NC(=O)CN3CCOCC3)s2)cc1
#10 CN(C)C(=O)N1CCC(C(=O)NCc2ccccc2)CC1
#11 O=C(NCc1cccs1)c1ccccc1[N+](=O)[O-]
#12 O=C(CSc1ncccn1)NC(=O)NCc1ccco1
Compound	7	8	9	10	11	12
D2 potentiator	-9	-4	-7	4	-34	0
Sfp inh	4%	6%	-2%	15%	-5%	-8%
Six1-Eya2 inh	-2	0	-3	3	-2	1
TRPV1 potentiator	?	-5	0	-2	12	5
D2 agonist	-2.8	-2.9	-1.7	-0.6	-2.3	-0.9
PINK1 expr mod	0.7%	-0.2%	4.0%	·	-0.8%	-0.4%
CtBP-E1A blk	-24	-4	-2	10	-9	-6

#13 NS(=O)(=O)c1ccc(NC(=O)COC(=O)CCc2nc3ccccc3c(=O)[nH]2)cc1
#14 CN(C)CCNC(=O)c1cccc(-c2cnc3c(NC=O)cc(-c4cccc(F)c4)cn23)c1
#15 CSc1ccc(NC(=O)C2(C)CCN2C(=O)c2cc(C)n(C)n2)cc1 (stereo unspecified)
#16 CN(C)N1C(N)=C(C#N)C(c2cccs2)C2=C1CC(C)(C)CC2=O (stereo unspecified)
#17 COc1ccccc1NC(=O)CCc1nc2sc3c(c2c(=O)[nH]1)CCCC3
#18 CC(=O)Nc1ccc2c(CN3C(=O)NC(C)(c4ccc(C)cc4)C3=O)cc(=O)oc2c1 (stereo unspecified)
Compound	13	14	15	16	17	18
D2 potentiator	-13	-9	-2	-15	-5	-10
Sfp inh	·	·	·	2%	·	-10%
Six1-Eya2 inh	6	-15	2	7	-13	-1
TRPV1 potentiator	5	·	·	-6	-10	?
D2 agonist	-4.4	5.1	4.4	-4.2	-0.7	-1.9
PINK1 expr mod	1.5%	1.1%	0.2%	0.4%	?	11%
CtBP-E1A blk	·	-14	0	4	-7	5

#19 O=C(CSc1ccccc1)NC1CCCCCCC1
#20 CC1=C(C(=O)OCc2ccccc2)C(c2ccc([N+](=O)[O-])cc2)NC(=O)N1C (stereo unspecified)
#21 CCOC(=O)c1c(C)n(C)c2c(C)cc(O)c(OC(=O)CC)c12
#22 CC(C)CNC(=O)c1cccc(NC(=O)c2ccc3c(c2)C(=O)N(C)C3=O)c1
#23 Cn1c2ccccc2c2cc(/C=C(\NC(=O)c3ccccc3)C(=O)NCC(=O)O)ccc21
#24 Cc1cccc(C)c1NC(=O)C(c1ccccc1)N1CCN(c2ccc(C(F)(F)F)cn2)CC1 (stereo unspecified)
Compound	19	20	21	22	23	24
D2 potentiator	-7	3	4	-10	-11	0
Sfp inh	-3%	-3%	14%	15%	10%	·
Six1-Eya2 inh	-5	-9	-3	-5	-4	-5
TRPV1 potentiator	-20	-11	7	?	4	·
D2 agonist	-2.6	-3.0	?	-1.9	-3.5	-0.4
PINK1 expr mod	0.9%	1.2%	9.1%	-1.1%	1.1%	3.2%
CtBP-E1A blk	0	3	12	·	-7	0

Nothing new here: entries from further up.
#15 CSc1ccc(NC(=O)C2(C)CCN2C(=O)c2cc(C)n(C)n2)cc1 (stereo unspecified)
#16 CN(C)N1C(N)=C(C#N)C(c2cccs2)C2=C1CC(C)(C)CC2=O (stereo unspecified)
#17 COc1ccccc1NC(=O)CCc1nc2sc3c(c2c(=O)[nH]1)CCCC3
#18 CC(=O)Nc1ccc2c(CN3C(=O)NC(C)(c4ccc(C)cc4)C3=O)cc(=O)oc2c1 (stereo unspecified)
#19 O=C(CSc1ccccc1)NC1CCCCCCC1
#20 CC1=C(C(=O)OCc2ccccc2)C(c2ccc([N+](=O)[O-])cc2)NC(=O)N1C (stereo unspecified)
#21 CCOC(=O)c1c(C)n(C)c2c(C)cc(O)c(OC(=O)CC)c12
#22 CC(C)CNC(=O)c1cccc(NC(=O)c2ccc3c(c2)C(=O)N(C)C3=O)c1
Compound	15	16	17	18	19	20	21	22
D2 potentiator	-2	-15	-5	-10	-7	3	4	-10
Sfp inh	·	2%	·	-10%	-3%	-3%	14%	15%
Six1-Eya2 inh	2	7	-13	-1	-5	-9	-3	-5
TRPV1 potentiator	·	-6	-10	?	-20	-11	7	?
D2 agonist	4.4	-4.2	-0.7	-1.9	-2.6	-3.0	?	-1.9
PINK1 expr mod	0.2%	0.4%	?	11%	0.9%	1.2%	9.1%	-1.1%
CtBP-E1A blk	0	4	-7	5	0	3	12	·

#23 Cn1c2ccccc2c2cc(/C=C(\NC(=O)c3ccccc3)C(=O)NCC(=O)O)ccc21
Compound	23
D2 potentiator	-11
Sfp inh	10%
Six1-Eya2 inh	-4
TRPV1 potentiator	4
D2 agonist	-3.5
PINK1 expr mod	1.1%
CtBP-E1A blk	-7

Looked up one by one from above (two):
#23 Cn1c2ccccc2c2cc(/C=C(\NC(=O)c3ccccc3)C(=O)NCC(=O)O)ccc21
#21 CCOC(=O)c1c(C)n(C)c2c(C)cc(O)c(OC(=O)CC)c12
Compound	23	21
D2 potentiator	-11	4
Sfp inh	10%	14%
Six1-Eya2 inh	-4	-3
TRPV1 potentiator	4	7
D2 agonist	-3.5	?
PINK1 expr mod	1.1%	9.1%
CtBP-E1A blk	-7	12

Next records:
#25 O=C(CSc1nnc(-c2ccc(F)cc2)c2ccccc12)Nc1cccc(Cl)c1
#26 CSc1ncccc1C(=O)N1CCCC(C(=O)c2cc(F)ccc2F)C1 (stereo unspecified)
#27 CC1Cc2ccccc2N1CC(=O)NC(=O)NCc1ccccc1 (stereo unspecified)
#28 CCOC1=C2[C@H](c3ccccc3)N(S(=O)(=O)c3ccc(C)cc3)C(C(C)(C)C)[C@H]2n2c(=O)n(-c3ccccc3)c(=O)n2C1 (stereo partly specified)
#29 CC1(C)CC(NC(=O)c2ccc(Cl)cc2)CC(C)(C)N1
#30 COc1ccc(C(Nc2ccccn2)c2c(NC(=O)c3ccco3)sc(C)c2C)cc1OC (stereo unspecified)
Compound	25	26	27	28	29	30
D2 potentiator	-9	2	-15	-3	-16	-3
Sfp inh	14%	9%	8%	·	17%	0%
Six1-Eya2 inh	1	-5	-12	-8	1	-24
TRPV1 potentiator	18	6	5	·	20	2
D2 agonist	-1.9	-0.1	-8.2	-2.2	1.3	0.2
PINK1 expr mod	2.8%	2.2%	1.7%	6.6%	1.7%	-1.6%
CtBP-E1A blk	-4	·	-1	6	4	·

#31 CCc1nc2nc(C)c(NS(=O)(=O)c3ccc(Cl)cc3)c(=O)n2[nH]1
#32 c1ccc(-c2ccc(OCCCNC3CCCC3)cc2)cc1
#33 Cc1c(N(C(=O)c2cc(=O)[nH]c3ccccc23)C(C)C)c(=O)n(-c2ccccc2)n1C
#34 Cc1ccc(NC(=O)Nc2ccc(F)c(Cl)c2)cc1
#35 Cc1cc(C)c(NC(=O)COc2ccccc2C(=O)Nc2ccc3c(c2)oc2ccccc23)c(C)c1
#36 Cn1nc(-c2ccc(C(=O)Nc3ccc(F)cc3)cc2)c2ccccc2c1=O
Compound	31	32	33	34	35	36
D2 potentiator	-2	-23	-1	-1	-3	-6
Sfp inh	4%	?	18%	15%	1%	-15%
Six1-Eya2 inh	3	7	8	9	4	-8
TRPV1 potentiator	-12	1	-7	-1	11	-7
D2 agonist	2.3	-1.5	-0.4	-1.6	-2.3	1.5
PINK1 expr mod	0.9%	-0.2%	·	4.3%	4.3%	11%&1.9%
CtBP-E1A blk	2	-3	11	-10	7	0

#37 COc1ccccc1CN(C)C(=O)C1COc2ccccc2O1 (stereo unspecified)
#38 COc1ccc(S(=O)(=O)N2CCC(C(=O)NCCN3CCOCC3)CC2)cc1
#39 CC(C)Cc1ccc(CN2C(C(C)C)C(=O)N(Cc3cn(CCC4OCCO4)nn3)CCS2(=O)=O)cc1 (stereo unspecified)
#40 Cc1c(NC(=O)c2cccc(NC(=O)Cc3ccc(Cl)cc3)c2)c(=O)n(-c2ccccc2)n1C
#41 COC(=O)c1ccccc1NC(=S)NC(=O)c1ccccc1F
#42 Cc1cc(-c2ccccc2)c2c(=O)[nH][nH]c2n1
Compound	37	38	39	40	41	42
D2 potentiator	-8	-3	-2	-1	-18	3
Sfp inh	9%	4%	·	·	10%	-10%
Six1-Eya2 inh	2	1	-4	1	3	-6
TRPV1 potentiator	-10	2	·	5	5	-6
D2 agonist	-3.7	0.7	-0.7	-1.6	-4.0	-4.2
PINK1 expr mod	-14%[38.3 µM]	-0.1%	-0.4%	-0.9%	-0.4%	1.3%
CtBP-E1A blk	10	13	4	-8	5	2

#43 CN(C)S(=O)(=O)c1ccc(Cl)c(NC(=O)COC(=O)c2ccc(O)cc2)c1
#44 COc1ccc(-n2c(N)c(C(=O)NCc3ccco3)sc2=S)cc1
#45 Cc1cc(C(=O)Nc2cnc3ccccc3c2)ccc1[N+](=O)[O-]
#46 CCOC(=O)c1cc(C(=O)NCc2ccc(Cl)cc2Cl)nn1C
#47 CCN(CC)S(=O)(=O)c1ccc(N2CCOCC2)c(NC(=O)COc2ccccc2C#N)c1
#48 Cc1ccc(OCCNC(=O)c2ccc(NC(=O)CC3SC(N4CCCC4)=NC3=O)cc2)cc1 (stereo unspecified)
#49 COc1ccc(OC)c(NC(=O)C2CCCCC2)c1
Compound	43	44	45	46	47	48	49
D2 potentiator	12	13	-11	-4	-5	-11	-4
Sfp inh	0%	4%	8%	6%	?	·	9%
Six1-Eya2 inh	-1	-15	15	9	-2	-12	5
TRPV1 potentiator	5	2	-9	-2	8	?	6
D2 agonist	5.4	-3.2	-2.9	-1.3	-1.9	-6.9	-6.4
PINK1 expr mod	1.7%	-0.9%	11%	0.3%	4.5%	0.9%	-0.2%
CtBP-E1A blk	-13	-6	-8	7	0	6	·
